# MT1-MMP reporter: inhibitors of MT1-MMP promoter transcription, cell-based, luciferase reporter, luminescence (AID 618). calls from a first round at 10 µM; hits with a dose series show EC50 in µM. 87,000 compounds, 0.62% hits. MT1-MMP promoter luciferase reporter cells, luminescence;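 active = over half of the reporter light lost at 10 µM or EC50 under 50 µM; inactive = the rest and hits that failed the dose series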;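 note: actives suppress MT1-MMP promoter-driven transcription so potencies describe inhibitors; HT1080 fibrosarcoma cells; overnight exposure; toxic or luciferase-blocking compounds were not removed from the actives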
# WNV protease inh: inhibitors of WNV NS2B-NS3 protease, primary screen, biochemical, fluorogenic substrate | Genome polyprotein (West Nile virus), P06935 | fluorogenic substrate Ex360/Em465; hits give low values | z-score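 (tested at a level between 10 and 100 µM)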 | 65,000 compounds, 0.18% hits | AID 577, 2007;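 active = z-score at -3 or under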;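 note: score is relative to mean and spread of the compound wells of a plate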
# Target sequence (P06935 1371-1501 limits assumed): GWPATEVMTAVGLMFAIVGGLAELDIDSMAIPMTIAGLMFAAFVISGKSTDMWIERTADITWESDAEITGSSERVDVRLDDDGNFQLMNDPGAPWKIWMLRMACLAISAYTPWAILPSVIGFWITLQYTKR
# Target sequence (P06935 1502-1679 limits assumed): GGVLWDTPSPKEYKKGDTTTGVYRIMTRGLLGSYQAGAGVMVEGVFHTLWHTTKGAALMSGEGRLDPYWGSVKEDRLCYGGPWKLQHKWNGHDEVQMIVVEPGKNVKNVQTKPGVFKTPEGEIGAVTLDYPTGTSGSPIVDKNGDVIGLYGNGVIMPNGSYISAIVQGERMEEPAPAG
# Hsc70 ATP site: Hsc70 inhibitors, probe displacement, primary screen, biochemical, fluorescence polarization (AID 568); Heat shock cognate 71 kDa protein (Homo sapiens); Hsc70 fluorescence polarization, probe displacement; higher % means a stronger effect; strong numbers were not always called active; one-dose displacement, % at 20 µM; IC50 in µM for titrated hits; 83,000 tested, under 10 active;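 active = displacement above 50% without optical interference and an IC50 on retest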;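 note: ATPase domain with a fluorescein-tagged ATP probe; 0% = vehicle and 100% = excess ADP; read after one hour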
# Numbers without * were called inactive; i = inactive; x = no result given.
SMILES,MT1-MMP reporter,WNV protease inh,Hsc70 ATP site
CC(C)CC(NC(=O)C1CCCN1C(=O)OC(C)(C)C)C(=O)NCC(N)=O (stereo not given),i,0.04,3.0%
Cc1cccc(NC(=O)Nc2cccc(C#N)c2)n1,i,-0.83,1.1%
CN1CCN(/C=C2\SC(=S)NC2=O)CC1,i,-0.18,-5.9%
CCOC(=O)Cc1csc(NC(=O)CN(C)S(=O)(=O)c2cccc3cccnc23)n1,i,0.71,-6.0%
O=C(NCc1cccs1)c1noc2c1CCCCC2,i,1,-2.3%
COc1cccc(C2Nc3ccccc3C(=O)N2O)c1O (stereo not given),i,-0.17,-2.6%
O=C(CN1CCOCC1)Nc1ccc(Br)cn1,i,0.64,4.2%
OC(COCc1ccco1)CN1CCN(C(c2ccccc2)c2ccccc2)CC1 (stereo not given),i,1.7,4.9%
COc1ccccc1C1N(c2cc(Cl)ccc2OC)C(=O)C2CCCN21 (stereo not given),i,-1.5,-7.1%
Cn1c(=O)c2c(ncn2CC(=O)N2CCCc3ccccc32)n(C)c1=O,i,0.07,-6.7%
CCOC(=O)c1ccc(NC(=O)CCNc2c(N3CCCC3)c(=O)c2=O)cc1,i,-0.51,0.2%
c1ccc(-n2nnnc2SCc2cn3cccnc3n2)cc1,i,0.73,2.2%
CCOC(=O)N1CCN(c2c(NCc3ccccn3)c(=O)c2=O)CC1,i,1.9,-1.3%
C=CCSc1nc2c(c(=O)[nH]c(=O)n2C)n1C(C)C,i,-0.26,-1.9%
CCSc1nc(-c2ccccc2)c(C#N)c(=O)[nH]1,i,-0.56,0.8%
COc1ccc(C2CC(=O)N3CN(Cc4ccco4)CSC3=C2C#N)cc1 (stereo not given),i,-0.07,2.4%
Cc1cc(C(=O)NCc2ccccc2)no1,i,0.86,-2.8%
Cn1cnnc1SCCNS(=O)(=O)c1ccccc1,i,x,4.1%
Cc1cc(C)c2cc(CN(Cc3nnnn3C3CCCCC3)CC3CCCO3)c(=O)[nH]c2c1 (stereo not given),i,0.42,1.0%
CCN1C(=O)/C(=C/N(C)c2ccccc2)OC1=S,i,-0.94,-2.6%
CCOC(=O)N/C(N)=N/c1nc2ccccc2s1,i,0.64,-3.8%
Cc1nc2cc(NS(=O)(=O)c3c(C)c(C)cc(C)c3C)ccc2s1,i,x,0.5%
COc1ccc(-n2ccnc2SCC(=O)NCc2ccc3c(c2)OCO3)cc1,i,-0.32,3.4%
O=C(Nc1ccccc1C(=O)N1CCCCC1)c1cccc(S(=O)(=O)N2CCOCC2)c1,i,-0.95,-4.6%
COn1c(=S)[nH]c2ccccc2c1=O,i,0.39,1.0%
COc1cc(OC)cc(-c2nc(-c3ccccc3OC)no2)c1,i,-1.1,-2.7%
O=C(c1ccc2c(=O)n(C3CCCC3)c(=S)[nH]c2c1)N1CCc2ccccc21,i,x,-15%
CC(C)c1[nH]nc2c1C(c1ccc(OC(=O)c3ccco3)cc1)C(C#N)=C(N)O2 (stereo not given),i,-1.1,-5.0%
O=C(Nc1ccc2c(c1)oc1ccccc12)c1cccnc1,i,1.2,4.9%
CCOC(=O)/C(=N\Nc1ccccc1)c1csc(Nc2ccc(C)cc2)n1,i,x,-3.4%
CCOC(=O)N1CCN(C(=O)CSc2ncccn2)CC1,i,0.7,1.5%
Cc1ccc(C(=O)NCCNC(=O)CN2CCCC2)cc1,i,1.3,3.3%
CC(C)SC1=NC(C)(C)C=C(/C=C/c2c(Cl)cccc2Cl)N1,i,x,1.6%
CCn1cc(Br)c(C(=O)Nc2ccc(F)c(Cl)c2)n1,i,-1.5,-5.1%
COc1ccc2nc(SCC(N)=O)[nH]c2c1,i,-0.75,-4.1%
COC(=O)c1ccccc1S(=O)(=O)N(CCCN1CCOCC1)Cc1cccs1,i,0.99,-4.0%
Cc1cc(C)cc(OCCCC(=O)O)c1,i,-0.79,4.9%
CC(C)C[C@@H](N)c1nnc(SCC(=O)c2ccc(Cl)cc2)o1,i,x,-1.7%
O=C(Nc1ccc2c(c1)OCO2)Nc1ccc(Br)cn1,i,-0.37,-4.7%
O=C(NC1CCCC1)C1CC(=O)N(CCc2ccccc2)C1 (stereo not given),i,-0.33,1.1%
Cn1c(CN2CCOCC2)nnc1SCC(=O)NC1CCCCC1,i,-0.57,-0.1%
O=C(Nc1ccc(Cl)cc1)N(C1=NCCC1)c1ccc(OC(F)F)cc1,i,x,3.5%
COc1ccc(S(=O)(=O)N2CCN(C(=O)c3cccs3)CC2)cc1OC,i,-1.3,-0.3%
O=c1c2nnn(Cc3ccccc3)c2ncn1C/C=C/c1ccccc1,i,0.16,-0.3%
Cn1c(=O)[nH]c(=O)c2c1nc(N1CCOCC1)n2CC(O)COc1ccc2ccccc2c1 (stereo not given),i,0.09,1.1%
O=C(Nc1nc2ccccc2[nH]1)C1CC(=O)N(c2ccc3c(c2)OCCO3)C1 (stereo not given),i,1.4,-2.3%
CN(C)c1ccc(C(=S)N2CCOCC2)cc1Br,i,2.3,0.5%
COc1ccc(NC(=O)CN2CCN(CC(=O)Nc3ccccc3F)CC2)cc1OC,i,0.91,-9.0%
Cc1snc2sc(C(=O)c3ccc(Br)cc3)c(N)c12,i,x,-14%
CCOC(=O)N1CCN(S(=O)(=O)c2ccc(OC)c(OC)c2)CC1,i,x,2.6%
Cc1cc(C(=O)O)sc1C,i,-0.54,2.2%
COc1ccc2c(-c3ccccc3)cc(N3CCOCC3)nc2c1,i,-0.53,3.1%
Cc1csc(C2=C(O)CN(CCc3ccccc3)C2=N)n1,i,0.42,9.7%
Nc1nc(-c2ccc(Br)s2)c(Br)s1,i,-1.8,1.1%
CC(C)N(C(=O)CSc1nn2c(=O)c(C(C)(C)C)nnc2s1)c1ccccc1,i,-0.08,-0.2%
CCc1c(O)nc(SCC(=O)NC(C)(C)C)n(-c2ccccc2)c1=O,i,x,1.6%
Cc1cc(NCc2ccccc2Cl)n2nnnc2n1,i,-0.54,-4.3%
Cn1c(C(=O)N2CCN(Cc3ccccc3)CC2)cc2c(=O)n(C)c3ccccc3c21,i,-0.07,0.0%
CCC(=O)N(Cc1cc2c(C)cc(C)cc2[nH]c1=O)C1CCCCC1,i,-0.17,-5.6%
Clc1ccc(Nc2nc(NCCN3CCOCC3)nc(N3CCOCC3)n2)cc1,i,0.39,1.4%
# Remaining list, next part:
SMILES,MT1-MMP reporter,WNV protease inh,Hsc70 ATP site
CC1CCN(c2nc3c(c(=O)[nH]c(=O)n3C)n2Cc2ccccc2Cl)CC1,i,1.7,0.0%
Cc1cc(=O)[nH]c(=S)[nH]1,i,-0.36,1.0%
CCn1c(CCCNC(=O)c2cccs2)nc2ccccc21,i,-1.1,4.5%
O=C1CCn2nc(-c3ccc(Cl)cc3)cc2N1,i,-0.43,3.4%
Oc1[nH]c2ccccc2c1OCc1ccncc1,i,1.3,-2.0%
Cc1ccc(S(=O)(=O)Nc2c(C)ccc3nsnc23)cc1,i,x,-1.8%
O=C(O)c1c(F)c(F)cc2ccccc12,i,-0.0014,-2.2%
CCn1c(COc2ccc3c(c2)CCCC3)nnc1SCC(=O)Nc1nccs1,i,-0.62,-0.2%
Cc1cc2oc(C(=O)NCc3ccncc3)c(C)c2cc1C,i,2.9,5.0%
CCCCCCc1cc2cc(-c3nnc(-c4ccccc4OC)o3)c(=O)oc2cc1O,i,x,-57%
CC(=O)Cc1nsc(NC(=O)c2cccs2)n1,i,x,-0.4%
O=C(OCc1ccccc1F)c1ccc2c(c1)OCCO2,i,-0.04,1.2%
COc1cccc2cc(-c3cn4ccc(C)cc4n3)c(=O)oc12,i,x,-8.9%
O=C(Cn1cnc2c(cnn2-c2ccccc2Cl)c1=O)N1CCc2ccccc21,i,-0.34,-5.8%
O=S(=O)(Nc1cccc(C(F)(F)F)c1)c1cccnc1,i,-0.46,-4.7%
COc1ccccc1NC(=O)N1CCN(c2ccc(F)cc2)CC1,i,x,3.3%
Cc1csc(NC(=O)C2CCCN2C(=O)OCC(C)C)n1 (stereo not given),i,-0.06,-1.0%
Cn1c(Cn2cnc3ccccc32)nnc1SCC(=O)CC(=O)Nc1ccccc1,i,-0.74,1.6%
COc1ccc(NC(C)=O)cc1NC(=O)CSc1nc2ncccc2[nH]1,i,0.28,-8.7%
Nc1c(C(=O)Nc2ccccc2)sc2nc3c(c(-c4ccco4)c12)CCC3,i,x,4.9%

# Compound profiles (already shown). Screens in order: MT1-MMP reporter, WNV protease inh, Hsc70 ATP site
# Listed for O=C(Cn1cnc2c(cnn2-c2ccccc2Cl)c1=O)N1CCc2ccccc21 → i, -0.34, -5.8%
# Listed for O=C(OCc1ccccc1F)c1ccc2c(c1)OCCO2 → i, -0.04, 1.2%
# Listed for O=C1CCn2nc(-c3ccc(Cl)cc3)cc2N1 → i, -0.43, 3.4%
# Listed for COc1ccc(NC(C)=O)cc1NC(=O)CSc1nc2ncccc2[nH]1 → i, 0.28, -8.7%
# Listed for COc1cccc2cc(-c3cn4ccc(C)cc4n3)c(=O)oc12 → i, x, -8.9%

# Other results follow.
SMILES,MT1-MMP reporter,WNV protease inh,Hsc70 ATP site
COc1ccc(-c2ccc(=O)n(CC(=O)Nc3ccc(C(=O)NC4CC4)cc3)n2)cc1OC,i,x,-2.1%
O=C(c1ccccc1)N1CCN(c2ccccc2F)CC1,i,-1.2,-3.9%
CCN1CCN(c2cc(=O)n(C3CCCCC3)c(=O)[nH]2)CC1,i,1.1,8.0%
O=C(c1c[nH]c2ccc(F)cc2c1=O)N1CCCCCC1,i,x,4.1%
Cn1cnc2c1c(=O)n(Cc1cccc(Br)c1)c(=O)n2C,i,0.09,4.9%
O=C(Nc1cccc(F)c1)N1CC=C(c2ccc(Cl)cc2)CC1,i,x,-3.4%
Cc1cccc(-n2c(N)cc(=O)[nH]c2=S)c1,i,-0.63,-1.4%
CN(C)CCC(O)(c1ccccc1)c1ccccc1,i,x,-2.4%
Cc1ccc(C(c2nnnn2CC2CCCO2)N2CCN(c3cccc(C)c3C)CC2)cc1 (stereo not given),i,-0.4,4.0%
COC(=O)C1CCN(C(=O)c2ccccc2NC(C)=O)CC1,i,-0.66,0.9%
O=C(Nc1cccc2ccccc12)c1ccc(Br)o1,i,0.04,-2.9%
Cc1ccc(Cn2c(=O)c3ccccc3n3c(CCC(=O)O)nnc23)cc1,i,-0.31,-1.3%
O=C(O)CCCc1nc2ccccc2s1,i,-0.68,-0.7%
COc1ccc(CNC(=O)CN(C(=O)c2ccc(CN3CCOCC3)o2)C2CCCC2)cc1,i,0.7,-1.1%
CC(=O)N1CCc2cc(S(=O)(=O)NC(C(=O)Nc3nc(C)cs3)C(C)C)ccc21 (stereo not given),i,-2.4,4.0%
CCN(CC)c1ccc2cc(-c3nc4ccccc4n3C)c(=O)oc2c1,i,1,-45%
O=C(CCSc1nc(-c2ccco2)cc(C(F)(F)F)n1)NCCc1ccccc1,i,0.24,-0.7%
Cc1cc(N(C(=O)c2ccco2)C(C(=O)NC2CCCCC2)c2ccccc2)ccc1-n1cnnn1 (stereo not given),i,0.07,-4.9%
CCc1ccccc1NC(=O)CSc1nnc([C@H](CCSC)NC(=O)OC(C)(C)C)o1,i,x,3.0%
O=C(O)CC(c1ccccc1)n1cnnn1 (stereo not given),i,-0.55,1.0%
N#C/C(=C\c1cccs1)Sc1nc2ccccc2s1,i,-1.6,-0.7%
COc1ccc(S(=O)(=O)N2CCCCC2C(=O)O)cc1OC (stereo not given),i,0.38,-7.0%
CCc1nc(N2CCN(C(=O)c3ccco3)CC2)c2oc3ccccc3c2n1,i,-0.79,1.7%
CC1CC(C)CN(S(=O)(=O)c2ccc(C(=O)N3CCN(c4ccccc4)CC3)cc2)C1 (stereo not given),i,-0.89,-0.7%
CCN(CC)C(=O)CN1C(=O)C2(OCC(C)(c3ccccc3)CO2)c2ccccc21 (stereo not given),i,0.3,1.6%
COc1ccc(OC)c(S(=O)(=O)Nc2ccccc2C)c1,i,-1.3,4.1%
Cc1cc(Cl)ccc1N=c1ssnc1Cl,i,x,-1.1%
CCCCN(C(=O)Cn1nnc2ccccc21)C(C(=O)NCCOC)c1ccccc1 (stereo not given),i,x,0.5%
c1ccc(-c2noc(CSc3nnnn3C3CCCCC3)n2)cc1,i,0.3,-3.9%
Cc1cccc(NC(=O)CN(C)S(=O)(=O)c2ccccc2)n1,i,-0.21,5.0%
CCCCN1C2=C(C(=O)CC(C)(C)C2)C(c2ccccc2)C2=C1c1ccccc1C2=O (stereo not given),i,x,0.4%
CCN1C(=O)/C(=C2\SC(=S)N(CCCOC)C2=O)c2ccccc21,i,-0.95,-3.0%
NS(=O)(=O)c1ccc2c(c1)C1C=CCC1C(C1CC=CCC1)N2 (stereo not given),i,x,3.6%
Cc1ccc(NCc2nnc(SCCN3CCCCC3)n2CC2CCCO2)c(C)c1 (stereo not given),i,-0.26,0.7%
COc1cc(C(=O)Nc2nc3ccccc3s2)ccc1OCc1c(C)noc1C,i,x,-1.3%
CCOc1ccc(NC(=O)CCNS(=O)(=O)c2ccc3c(c2)c(=O)n(C)c(=O)n3C)cc1,i,-0.3,-3.0%

# Reprinted at random: two entries already listed
SMILES,MT1-MMP reporter,WNV protease inh,Hsc70 ATP site
COc1ccc(S(=O)(=O)N2CCCCC2C(=O)O)cc1OC (stereo not given),i,0.38,-7.0%
CCCCN(C(=O)Cn1nnc2ccccc21)C(C(=O)NCCOC)c1ccccc1 (stereo not given),i,x,0.5%

# Bioassay records from PubChem.
